Compound activity from PubChem.
Vaccinia mCherry = inhibitors of vaccinia virus infection (mCherry reporter signal) | Vaccinia virus mCherry reporter infection, fluorescence; about a quarter of the inactives have no number | Potency, µM (titrated, usually from 36.5 µM), inactives show top-dose activity change, negative = inhibition, actives largely listed as inhibitors | hit rate 0.63% among 310,000 | AID 720579; active = well fitted inhibition curve with a large enough effect; inconclusive = small, poorly fitted or top-dose-only effect; inactive = no such curve, though single readings can be large or run the other way; tested in A549 cells; also: nearly all actives have a fitted effect of over 35% in size; inactives centre near -10
VACV Venus inh = vaccinia inhibition (Venus reporter); Vaccinia virus Venus reporter expression, fluorescence; Potency, µM (top dose mostly 36.5 µM), for inactives: top-dose activity change, negative = inhibition, actives largely listed as inhibitors; hit rate 0.46% among 330,000; AID 720580; active means well fitted inhibition curve with a large enough effect; inconclusive means small, poorly fitted or top-dose-only effect; inactive means no such curve, though single readings can be large or run the other way; tested in A549 cells; also: nearly all actives have a fitted effect of over 30% in size; inactives centre near -10
The depositor's hits bear a star; i = inactive; ? = inconclusive; · = no result given; [ ] = remark or other dose. % is scaled to controls: 0 for no effect and ±100 for the full control effect; potency is read from the fitted curve at half-maximal effect.

Order of values – Vaccinia mCherry | VACV Venus inh
COc1ccc(/C=N/NC(=O)c2[nH]c3ccc(Br)cc3c2-c2ccccc2)cc1
 : ? | ?
Cn1c(=O)[nH]c(=O)c2c1nc(N1CCOCC1)n2CC(O)COc1ccccc1 (centres undefined)
 : -16.4% | -2.7%
Cn1c(N/N=C/c2c[nH]c3ccccc23)nc2ccccc21
 : ? | ?
COc1cccc(CN2CCNC(=O)C2CC(=O)N2CCOc3ccccc3C2)c1OC (centres undefined)
 : -2.5% | 2.3%
CCOc1c(O)ccc(/C=C2\SC(=S)NC2=O)c1[N+](=O)[O-]
 : -3.0% | -17.6%
O=C(NCC(c1ccco1)N1CCc2ccccc2C1)c1ccccc1Cl (centres undefined)
 : i | -14.5%
COc1ccc(Cl)cc1NC(=O)Cn1c(=O)n(Cc2ccco2)c(=O)c2cccnc21
 : i | -11.9%
Cc1ccc(CN2CCCC(C(=O)c3sccc3C)C2)o1 (centres undefined)
 : -16.3% | -26.5%
Nc1c(Br)cc(Br)c2c1-c1ccc([N+](=O)[O-])cc1C2
 : i | -13.2%
CCCCN(Cc1ccccc1)C(=O)C1CCCN(S(=O)(=O)c2cnc[nH]2)C1 (centres undefined)
 : i | -13.5%
COCCCNc1oc(COc2ccc(Cl)cc2Cl)nc1C#N
 : · | ?
CCOc1ccc(N2C(=O)CN=C2Nc2ccccc2Cl)cc1
 : · | -9.7%
CCN(CC)C(CNC(=O)c1cc(=O)[nH]c2ccccc12)c1ccccc1Cl (centres undefined)
 : -2.0% | -4.9%
CCOc1ccc(NC(=O)CN(C)C(=O)Cc2c(C)nc3ccccc3c2C)cc1OCC
 : -23.2% | -15.5%
CCCC#Cc1ccc2c(c1)O[C@H](CN(C)S(=O)(=O)c1cccc(OC)c1)[C@H](C)CN([C@H](C)CO)S2(=O)=O
 : -23.9% | ?
COc1ccc(CCn2c3c(c(=O)[nH]c2=S)CN(C)CN3)cc1OC
 : -11.9% | -8.8%
COc1ccc(CCNC2=C(Cl)C(=O)N(Cc3ccccc3)C2=O)cc1OC
 : -12.1% | -24.0%
O=C(N/N=C/c1cccs1)c1ccc2c(c1)OCO2
 : i | -8.2%
Cc1cccc(-c2nc3c4ccccc4nc(NCc4ccc(F)cc4)n3n2)c1
 : -13.3% | -6.5%
CCC(C(=O)NCc1ccccc1Cl)n1c(=O)c2cccn2c2ccccc21 (centres undefined)
 : 10.2% | 12.5%
CSc1ncccc1C(=O)NCCc1ccc(S(N)(=O)=O)cc1
 : i | -2.3%
COc1ccc(-c2cc(CNc3nc4cc(-c5ccccc5C)sc4c(=O)n3C)on2)cc1
 : ? | -13.3%
CCN(CC)S(=O)(=O)c1cccc(C(=O)NC(C(=O)Nc2nnc(C)s2)C(C)C)c1 (centres undefined)
 : · | -17.2%
Cc1cc(N2CCOCC2)nc(SCc2ccc(Cl)cc2Cl)n1
 : · | -9.1%
OC(c1ccc(Cl)c(F)c1)c1ncc(-c2cccc(C(F)(F)F)c2)[nH]1 (centres undefined)
 : ? | ?
Cc1ccc(/C=N/N(C)C2=NS(=O)(=O)c3ccccc32)cc1
 : -16.6% | 2.1%
COC(=O)C1=CN(c2ccc(Oc3ccccc3)cc2)C(N)=C(C#N)C1c1ccccc1 (centres undefined)
 : ? | -13.7%
COc1cc2c(cc1OC)C(C(C)C)=NC(C)(C)C2
 : · | -6.0%
Cc1nc(/N=C(\N)NC(=O)NC2CCCCC2)nc2ccccc12
 : ? | -45.1%
COC(=O)c1ccc(NC(=O)CC2C(=O)N(c3cccc(C)c3)C(=O)N2Cc2ccco2)cc1 (centres undefined)
 : 1.4% | 3.0%
Fc1cccc(Cc2noc(CN3CCN(C4CCc5ccccc5C4)CC3)n2)c1 (centres undefined)
 : -21.2% | -3.1%
O=S(=O)(NCC1CCCO1)c1cc(Br)c(Br)s1 (centres undefined)
 : · | -12.8%
Cc1nc(Nc2ccc(F)cc2)[nH]c(=O)c1CCC(C)C
 : ? | ?
COC(=O)c1sccc1N(C)S(C)(=O)=O
 : -13.4% | -8.5%
Cc1ccc(S(=O)(=O)N2CCC(C(=O)N/N=C/c3ccccc3[N+](=O)[O-])CC2)cc1
 : -9.4% | -27.5%
COc1ccccc1NC(=O)c1sc2nc(C)c(C(=O)Nc3ccc(C)cc3C)c(-c3ccc(Br)cc3)c2c1N
 : -0.5% | -3.5%
O=C(CCCN1C(=O)c2ccccc2C1=O)NCc1ccco1
 : · | -10.5%
C/C(=N\NC(=O)c1ccc(O)cc1)c1ccc2c(c1)Nc1ccccc1S2
 : -22.5% | ?
O=C(CN1C(=O)NC2(CCCC2)C1=O)Nc1ccc(Cl)cc1F
 : -15.8% | -6.2%
CCOc1ccc(-c2noc(CCCC(=O)NC3CCCC3)n2)cc1OC
 : -22.1% | -14.5%
COc1cc2c(cc1NC(=O)COCC(=O)O)oc1ccccc12
 : i | -8.8%
CCOC(=O)C1CCCCN1Cc1cccc(C(F)(F)F)c1 (centres undefined)
 : -10.0% | -9.8%
O=C(/C=C/c1cccs1)c1cc(F)ccc1OC(=O)N1CCOCC1
 : i | -8.0%
Cc1ccccc1-n1nc2c(c1NC(=O)c1cc3ccccc3oc1=O)CS(=O)C2 (centres undefined)
 : -20.4% | -4.6%
O=C(Cn1nnc(-c2ccc(C(F)(F)F)cc2)n1)NCCc1ccccc1
 : -10.7% | -5.8%
CC(C)Oc1ccc(CNC(=O)CCCn2c(=O)c3cccn3c3cccnc32)cc1
 : -16.8% | -11.6%
COCCNC(=O)c1cccc(OC2CCN(Cc3ccc(OC(F)F)cc3)CC2)c1
 : -12.7% | -15.4%
COc1ccc(CNC(=O)C(OC(=O)c2nsc(Cl)c2Cl)C(C)C)cc1 (centres undefined)
 : i | -2.7%
CC(=O)NC(C)C(=O)OCC(=O)c1ccc(-c2ccccc2)cc1 (centres undefined)
 : i | 2.6%
Cc1ccc(-c2cc(Cc3ccncc3)c(=O)[nH]n2)cc1
 : ? | -24.7%

Other records:
Order of values – Vaccinia mCherry | VACV Venus inh
Cc1csc(NC(=O)c2c(O)c3c(n(CC(C)C)c2=O)CCCC3)n1
 : · | -4.0%
CCCCn1c(=O)c2oc3ccccc3c2n(CC(=O)Nc2cc(C)ccc2C)c1=O
 : -6.9% | -25.2%
CN1C(=O)/C(=C\c2ccc(N(C)C)cc2)OC1=S
 : -4.9% | 11.9%
COc1cccc(CCNC(=O)c2c(O)nc3ccccn3c2=O)c1
 : 8.4% | 11.0%
CCO[C@H]1OC(C(=O)N2CCN(C)CC2)=C[C@@H](c2coc3ccccc3c2=O)[C@@H]1CCCO
 : i | -5.5%
COCCO[C@H]1CCC2C3CC=C4C[C@@H](O)CC[C@]4(C)C3CC[C@@]21C (some centres undefined)
 : -7.5% | -12.0%
CC(=O)c1ccc(NC(=O)CN(C)S(=O)(=O)c2cc3c(cc2Cl)NC(=O)CO3)cc1
 : 1.3% | -12.3%
COc1ccc(NC(=O)CCCN2C(=O)C(c3ccccc3)Oc3cccnc32)c(OC)c1 (centres undefined)
 : -4.6% | -5.2%
Nc1nonc1C(=O)N1CCCC1
 : -9.2% | -5.1%
Cc1ccc(OCC(O)CN2CCN(CC(O)COc3ccc(C)cc3Cl)CC2)c(Cl)c1 (centres undefined)
 : -6.2% | -8.9%
C=CCN1C(=O)CS/C1=N\N=C\c1cccc([N+](=O)[O-])c1
 : i | 8.0%
O=C1NC[C@H](Cc2ccc(O)cc2)N(C[C@@H]2CCCN2C[C@H](Cc2ccccc2)N2C[C@H](Cc3ccc(O)cc3)N(CC3CCCCCC3)C(=O)C2=O)C1=O
 : -0.6% | -11.0%
Cc1nn(-c2ccccc2)c(N2CCCC2)c1/C=N/NC(=O)c1cc(-c2ccccn2)nc2ccccc12
 : -3.8% | -27.5%
CCOC(=O)Nc1ccc2nc3n(c(=O)c2c1)CCCCC3
 : -11.4% | -19.5%
COC(=O)c1c(C)[nH]c(C(=O)CSc2ccc(Cl)cc2)c1C
 : · | -28.7%
Cc1ccc(N(CC(=O)Nc2ccc(C)c(Cl)c2)S(=O)(=O)c2cccs2)cc1
 : 0.0% | 7.7%
Cc1ccccc1N=Nc1ccc(O)c2ncccc12
 : 3.55µM* | ?
CC(=O)NC(c1cccc(F)c1)c1nc(-c2cccc(F)c2)cs1 (centres undefined)
 : -21.4% | -3.4%
O=C(CSc1nnc(CNC(=O)c2ccccc2F)o1)NCc1ccco1
 : -12.1% | -2.6%
OC1(c2cccc(C(F)(F)F)c2)CCN(CCN2CCCCC2)CC1
 : -11.8% | 0.2%
CN(CCOc1ccc(Cl)cc1)C(=O)C1CCN(C(=O)c2ccc(F)cc2)CC1
 : -7.2% | -17.7%
COC(=O)C1=CN(Cc2ccc(OC)c(OC)c2)C=C(C(=O)OC)C1c1cccs1
 : -12.4% | -13.3%
CCn1cc(C(=O)N2CCN(c3cccc(C)c3C)CC2)c(=O)c2ccc(C)nc21
 : ? | -23.9%
O=C1COc2ccccc2N1Cc1ccc(Cl)cc1
 : i | -11.0%
C/C(CC(=O)Nc1ccc(C)c(Cl)c1)=N\NC(=O)c1cccc(O)c1
 : -3.6% | -21.9%
Cc1ccc(C)c(NS(=O)(=O)c2cc(C(=O)NCc3ccncc3)ccc2C)c1
 : -22.8% | -9.4%
CCCOc1ccc(C2Nc3cccc4cccc(c34)N2)cc1
 : -19.7% | -2.9%
CCCCOC(=O)c1ccc(NC(=O)c2cc(-c3cccs3)on2)cc1
 : i | -13.8%
CC(C)CN1CCc2nc(Nc3ccc(F)cc3F)ncc2C1
 : -14.9% | -23.3%
O=S(=O)(Nc1ccc(-c2ccc(N3CCCC3)nn2)cc1)c1ccccc1Cl
 : -5.5% | -3.8%

Part of the list above in order of count of non-hydrogen atoms, descending:
Order of values – Vaccinia mCherry | VACV Venus inh
Cc1ccc(C)c(NS(=O)(=O)c2cc(C(=O)NCc3ccncc3)ccc2C)c1
 : -22.8% | -9.4%
C/C(CC(=O)Nc1ccc(C)c(Cl)c1)=N\NC(=O)c1cccc(O)c1
 : -3.6% | -21.9%
O=C1COc2ccccc2N1Cc1ccc(Cl)cc1
 : i | -11.0%

Going on with the list.
Order of values – Vaccinia mCherry | VACV Venus inh
Cc1ccc(-n2c(=O)cc(N3CCc4ccccc4C3)[nH]c2=O)cc1
 : -6.7% | 0.1%
Cc1ccc(NC(=O)c2c(C)nc3sc(C(=O)Nc4ccc(F)cc4)c(N)c3c2-c2ccc(C)o2)c(C)c1
 : 1.3% | -1.6%
C#CCOc1ccccc1/C=C1/C(=O)ON=C1C
 : i | -12.2%
Cc1ccc(NC(=O)CS(=O)(=O)c2cn(CC(=O)N3CCOCC3)c3ccccc23)cc1
 : -17.1% | 5.3%
COc1ccc(C(=O)Oc2cc(OC)cc(OC)c2C(C)=O)cc1
 : i | 1.3%
Cc1ccc(S(=O)(=O)Nc2nc3c(s2)C(=O)CC(C)(C)C3)cc1
 : -6.2% | -3.8%
C=Cc1ccc(Cn2ccn(-c3ccc(F)c(F)c3)c(=O)c2=O)cc1
 : -1.0% | -0.4%
CSCc1ccc(C(=O)NCc2ccc(F)cc2)cc1
 : -3.9% | ?
CCOc1ccc(Br)cc1S(=O)(=O)Nc1cccc(-c2ccc(OC)nn2)c1
 : -8.6% | -14.7%
CCOc1ccc(N(CC(=O)Nc2nccs2)S(=O)(=O)c2c(C)[nH]c(=O)[nH]c2=O)cc1
 : i | -12.5%
O=C(COc1ccc(Br)cc1)NC1CC1
 : i | -1.7%
O=C(CC(c1cccs1)N1Cc2ccccc2C1=O)Nc1ccccc1 (centres undefined)
 : -15.1% | -11.1%
O=C(CSc1nnc2ccccn12)Nc1nsc(-c2ccccc2)n1
 : -6.3% | -0.4%
COc1ccc(C2C(=O)c3ccccc3C2=O)c(OC)c1
 : -2.2% | -0.6%
Cc1cccc(-c2nc3nc(C)cc(N4CCN(c5ccccc5)CC4)n3n2)c1
 : -7.5% | -1.9%
O=C(NCc1ccccn1)c1ccc(N2CCCC2)c([N+](=O)[O-])c1
 : i | -4.2%
Cn1c(/C=C/c2cccc([N+](=O)[O-])c2)c([N+](=O)[O-])c(=O)n(C)c1=O
 : ? | ?
O=S(=O)(Cc1ccccc1)N=Nc1c(O)[nH]c2ccc(Br)cc12
 : -10.4% | 10.1%
O=C(Nc1nnc2n1CCS2)c1ccccc1C(F)(F)F
 : 2.8% | 1.6%
CC1CCCC(NC(=S)Nc2cccc(S(=O)(=O)N(C)C)c2)C1C (centres undefined)
 : -1.9% | -18.0%
Cn1ccnc1C1CCCCN1Cc1nc(Cc2ccccc2F)no1 (centres undefined)
 : -0.6% | -8.3%
CCc1ccc(-n2c(=O)c3cccnc3n2CC(=O)NCc2ccc(C)cc2)cc1
 : -7.9%[7.34 µM] | -2.1%[7.34 µM]
Cc1ccc(Cl)cc1NC(=O)C(C)n1nnc2sc3c(c2c1=O)CCCC3 (centres undefined)
 : -3.9% | -5.1%
NC(N)=NS(=O)(=O)c1ccc(NC(=S)NC(=O)c2sc3ccccc3c2Cl)cc1
 : -4.3% | -14.8%
COc1ccc2[nH]c3c(c2c1)CCN1C(=O)C(CC(=O)NCCC2=CCCCC2)C[C@H](C(=O)N2CCOCC2)[C@@]31C (some centres undefined)
 : -27.8% | ?
Cc1nn(-c2ccccc2)c(Cl)c1/C=C(\CC(=O)O)c1nc2ccccc2s1
 : · | 1.2%
COc1ccc(NC(=O)CCCSc2nc(-c3ccco3)cc(C(F)(F)F)n2)cc1
 : -13.9% | -6.4%
CCn1c2ccccc2c2nnc(SC3CCOC3=O)nc21 (centres undefined)
 : -16.1% | -4.2%
Cc1nc(C)c(C(=O)NNS(=O)(=O)c2ccc3ccccc3c2)s1
 : ? | -3.2%
